PKD1 inh: blocks activity of human protein kinase D1. Q15139. PKD1 kinase fluorescence polarization assay. inhibition, %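 (about 10 µM by stock and volumes)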. 200,000 tested, 0.056% active. AID 797;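 active means inhibition of 50% or more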;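 further: controls were vehicle for no effect and a reference inhibitor for full effect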
GALR2 agonist: GALR2 (human) receptor agonism | O43603 | GALR2-expressing cells, agonist activation read-out | activation, %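 (tested at 5 µM)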 | 140,000 tested, 0.48% active;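 active means above mean plus 3 SD of all compounds, about 5% in these data, not always enough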;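 further: 0% = vehicle buffer wells and 100% = reference agonist at full effect; tested in CHO reporter cells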
Target sequence (O43603 whole entry, looked up): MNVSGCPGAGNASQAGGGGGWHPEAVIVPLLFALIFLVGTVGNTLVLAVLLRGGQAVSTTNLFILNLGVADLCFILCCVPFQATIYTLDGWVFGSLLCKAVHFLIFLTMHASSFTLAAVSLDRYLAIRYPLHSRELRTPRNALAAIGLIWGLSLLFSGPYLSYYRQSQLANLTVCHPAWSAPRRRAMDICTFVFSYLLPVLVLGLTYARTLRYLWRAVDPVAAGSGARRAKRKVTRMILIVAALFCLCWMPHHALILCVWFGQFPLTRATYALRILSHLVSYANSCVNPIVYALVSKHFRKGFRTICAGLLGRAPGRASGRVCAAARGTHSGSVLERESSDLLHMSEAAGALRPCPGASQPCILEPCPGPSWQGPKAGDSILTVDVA
HSV replic up: increases HSV replication in cells. HSV replication augmentation in cells, fold increase. maximum fold increase. 220,000 tested, 0.005% active;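 active means peak rise of 1.5-fold or more in the series; tested in PC3 cells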;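 further: first round at 10 µM; read as green reporter fluorescence; hits show the peak of a series up to 25 µM; 1 = signal of infected wells without compound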
INS promoter inh: TRM-6 insulin promoter activity inhibition | TRM-6 cells (human fetal islet line), insulin promoter-eGFP reporter, imaging; reporter expression induced with tamoxifen | inhibition, % at 2 µM | 130,000 tested, 0.9% active;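 active means inhibition above the mean plus 3 SD, with well images judged a real hit on visual review, cut at about 60% in these data, passing the limit was not always enough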
RGS16-Gao: regulators of human RGS16-Galphao interaction. binding response (% of control), % at 10 µM. O15492+P09471. bead-based flow cytometry RGS16-Galphao binding, fluorescence; actives lie on both sides. 220,000 tested, 0.38% active;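 active means below 25% or above 175%, edge rows of some plates excepted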;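 further: Galphao activated by GDP with aluminum fluoride before binding; 100% = wells without compound and 0% = beads without RGS; some results beyond the cut were filed as inactive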
Target sequence (O15492 whole entry, looked up): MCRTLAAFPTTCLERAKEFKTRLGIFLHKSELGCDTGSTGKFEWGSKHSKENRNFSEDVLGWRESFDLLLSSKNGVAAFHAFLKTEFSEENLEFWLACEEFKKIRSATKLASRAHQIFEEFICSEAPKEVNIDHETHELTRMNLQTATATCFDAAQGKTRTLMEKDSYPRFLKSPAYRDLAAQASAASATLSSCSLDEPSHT
Target sequence (P09471 whole entry, looked up): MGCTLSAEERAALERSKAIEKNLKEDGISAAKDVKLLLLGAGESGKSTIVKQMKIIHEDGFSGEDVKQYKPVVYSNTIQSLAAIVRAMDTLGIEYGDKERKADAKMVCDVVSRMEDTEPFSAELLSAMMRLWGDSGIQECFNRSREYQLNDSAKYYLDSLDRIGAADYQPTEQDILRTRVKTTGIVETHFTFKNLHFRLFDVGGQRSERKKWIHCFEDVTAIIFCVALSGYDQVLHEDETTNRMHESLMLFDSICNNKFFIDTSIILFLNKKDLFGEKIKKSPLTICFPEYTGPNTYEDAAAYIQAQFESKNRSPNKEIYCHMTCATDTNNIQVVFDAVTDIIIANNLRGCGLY
INS promoter inh cell count: recorded beside INS promoter inh, whose call it bears; normalized cell count, %; measured here: cell count, toxicity; reference of the scale not given here;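 cells exposed to compound for 48 h; stained nuclei by imaging scaled within each plate; lower means fewer cells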
HSV replic up primary fold: recorded beside HSV replic up, whose call it bears; fold increase; compound at 10 µM; measured here: primary screen fold increase 10 uM; tested in PC3 cells;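 GFP signal in the first replicate; 1 = infected wells without compound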
* marks the source's active call; other numbers are inactive results; i = inactive; . = not tested or not shown.

SMILES	PKD1 inh	GALR2 agonist	HSV replic up	HSV replic up primary fold	INS promoter inh	INS promoter inh cell count	RGS16-Gao
Cc1ccc(N2C(=O)N(CC(=O)c3cc(C)ccc3C)C(=O)C2C)cc1 (stereo unspecified)	-5	-1.6	i	1	.	.	85
Nc1ccc(N2CCOCC2)c(S(=O)(=O)Nc2cc(Cl)ccc2Cl)c1	-3	.	i	0.95	.	.	97
Cc1cc(C(=O)N[C@@H](c2ccccc2)[C@]2(C)C[C@H]2[C@@H](C)C(=O)Nc2ccc3ccccc3c2)no1	-3	-1.6	i	0.89	0	84	97
Cc1ccc(C(=O)Nc2cccc(C(=O)N3CCN(C)CC3)c2)cc1	-11	-2.0	i	0.84	51	53	94
NS(=O)(=O)c1ccc(NC(=O)COC(=O)C2CC(=O)N(Cc3ccccc3)C2)cc1 (stereo unspecified)	-1	.	i	0.95	.	.	103
O=[N+]([O-])c1ccc2nc(-c3ccccc3)cc(-c3ccccc3)c2c1	-14	-1.6	i	1.1	13	96	96
CCC/C(=N\NC(=O)CCC(=O)NCc1ccccc1)c1ccccc1	5	.	i	1	.	.	105
Cc1cc(C(=O)O)cc(Br)c1N	1	.	i	1	.	.	97
CCNc1nc(NCC)nc(NC(N)=S)n1	-6	.	i	0.97	7	100	105
Cc1c(NC(=O)COc2ncnc3ccccc23)c(=O)n(-c2ccccc2)n1C	0	-2.6	i	0.89	-81	109	102
Cn1c(=O)c2c(nc(CN3CCOCC3)n2CC(=O)c2ccccc2)n(C)c1=O	-4	-2.8	i	0.97	19	107	.
COc1nc2c(s1)C(=O)NCCC2	-5	-3.1	i	1	-79	56	107
O=C(COc1ccccc1)NC1CCCCC1	-12	-0.2	i	0.93	-7	127	81
CCOC(=O)CCC(=O)NNC(=O)c1ccc(NC(=O)c2ccccc2)cc1	4	.	i	0.88	.	.	103
COc1ccc(NC(=O)C2CCCC2)cn1	-2	.	i	1.1	-11	103	98
CC(=O)NC(CCS(C)(=O)=O)C(=O)Nc1ccc2c(c1)OCCO2 (stereo unspecified)	-5	-1.8	i	1	7	81	102
COc1ccc(/C=C(\NC(=O)c2ccccc2Cl)C(=O)NCCCC(=O)O)cc1	0	.	i	0.98	.	.	95
COc1cc(NC(=O)COc2ccc(F)cc2)nc(OC)n1	-5	-1.1	i	1	.	.	98
COc1ccc(/C(C)=N/Nc2nc3ccccc3nc2C)cc1	.	.	i	0.79	.	.	95
CN(C(=O)c1ccc2nccnc2c1)C1CCCCC1	.	.	i	1.1	.	.	114
Cc1cc(C)c2c(n1)nn1c(NCCCN(C)C)cc(C)nc21	-14	-1.6	i	0.98	.	.	105
COc1ccc(CNC(=O)C2=C(C)C(=O)OC23CCC(C)CC3)cc1 (stereo unspecified)	5	-3.0	i	0.91	.	.	98
O=[N+]([O-])/C=C1\CCCCCN1	.	.	i	0.89	.	.	101
CC1=NN(c2ccc(C(=O)OC(C)C)cc2)C(=O)/C1=C\C=C\c1ccco1	-8	-1.1	i	1	38	97	95
C/C(=N/O)c1c(O)c(C)c(-c2ccccc2)n(-c2ccccc2)c1=O	-7	-0.7	i	1.1	-45	79	94
COc1ccc(C2=NN(C(=O)CSc3ncccn3)C(c3ccc(C)cc3)C2)cc1 (stereo unspecified)	-10	1.8	i	1	.	.	103
CCOc1ncccc1C(=O)N(CC)CC(=O)Nc1ccc(NC(C)=O)cc1	-11	-0.3	i	0.99	-66	87	106
O=C1CCC(C(=O)Nc2cccc(Oc3ccccc3)c2)=NN1	-3	.	i	0.95	-9	107	110
Nc1n[nH]c(-c2ccc(Br)cc2)c1Cl	-8	-1.9	i	0.96	-21	96	103
c1ccc(CO/N=C(\c2ccc(C3CC3)nc2)C2CC2)cc1	-4	.	i	0.99	.	.	97
COc1ccc(C(=O)NC(=S)NC2CCSC2=O)cc1 (stereo unspecified)	-6	0.7	i	0.99	-7	137	109
COc1ccc2cc(CN(CC3COCCO3)S(=O)(=O)c3ccc(Cl)cc3)c(=O)[nH]c2c1 (stereo unspecified)	6	-0.1	i	0.98	.	.	95
O=C(CN1C(=O)NC2(CCCCCC2)C1=O)Nc1ccc2c(c1)CCC2	3	.	i	0.9	3	128	99
N#Cc1ccccc1OCCCNC1CCCC1	-4	.	i	0.96	.	.	98
Cc1no[n+]([O-])c1COc1cccc(/C=N/Nc2nncn2N)c1	.	.	i	0.91	.	.	92
NC(=O)c1nsc(C(=O)N(CC(=O)NCc2ccc3c(c2)OCO3)C2CCCC2)c1N	-1	-0.4	i	0.96	.	.	98
Cc1onc(-c2ccccc2Cl)c1C(=O)Nc1nnc(-c2ccc(Cl)cc2Cl)s1	-3	-1.3	i	0.87	.	.	61
S=c1[nH]nc(-c2cccnc2)n1/N=C/c1ccco1	-5	.	i	0.97	.	.	104
Cc1ccc(NC(=O)CCl)c(C)c1	-4	.	i	0.85	.	.	100
CCn1c2ccccc2c2cc(NC(=O)C/C(C)=N/NC(=O)c3ccccc3N)ccc21	-1	-1.7	i	1.1	-40	111	101
COc1ccc(CN2CCNC(=O)C2CC(=O)N(C)Cc2ccccn2)cc1OC (stereo unspecified)	-4	.	i	1	.	.	98
O=C(Nc1ccccn1)c1ccc(S(=O)(=O)c2ccc(Cl)cc2)cc1	-3	.	i	0.97	3	194	101
CCN(CC)C(=O)C1CCCN(c2ccc([N+](=O)[O-])cc2[N+](=O)[O-])C1 (stereo unspecified)	2	.	i	1	.	.	105
CC(=O)Nc1ccc(NC(=O)c2ccc(-n3c(C)ccc3C)cc2)cc1	-8	0.2	i	0.87	-27	161	93
CC(C(=O)Nc1ccc(S(=O)(=O)N2CCOCC2)cc1)N1CCN(c2ccccn2)CC1 (stereo unspecified)	-4	.	i	0.98	0	87	105
COc1ccc(C(=O)NCCNc2ccc([N+](=O)[O-])cc2)cc1	1	.	i	0.97	.	.	100
COc1ccc(OC)c(C(=O)c2ccc(Cl)cc2)c1	.	.	i	0.89	.	.	104
O=C1c2cccc3c([N+](=O)[O-])ccc(c23)C(=O)N1c1ccc(Cl)cn1	-9	1.9	.	.	.	.	99
CCc1ccc(C2c3[nH]c4ccccc4c3CCN2C(=O)c2cc(C)nn2C)cc1 (stereo unspecified)	-2	.	i	0.86	-4	25	107
COc1ccc(NC2CC(=O)N(c3cccc([N+](=O)[O-])c3)C2=O)cc1 (stereo unspecified)	0	.	i	0.83	25	123	106
The listing continues.
SMILES	PKD1 inh	GALR2 agonist	HSV replic up	HSV replic up primary fold	INS promoter inh	INS promoter inh cell count	RGS16-Gao
Cc1ccccc1OCC(=O)NCC(=O)N/N=C/C=C/c1ccccc1	-12	-2.9	i	0.9	-43	111	137
O=C(O)CCCN=C1NC2(CCCC2)Cc2ccccc21	-2	-0.9	i	0.93	-150	71	102
c1ccc2c(N3CCCCC3)nc(N3CCOCC3)nc2c1	1	.	i	0.95	-92	112	107
CCC(=O)N(Cc1cc2cc(OC)ccc2[nH]c1=O)c1cc(C)ccc1C	-5	-1.0	i	0.77	.	.	100
CCOc1cc(CNCCO)cc(Br)c1OCc1ccccc1Cl	-6	-1.9	i	0.6	.	.	94
C/C(=N/NC(=O)CSCc1ccc(Cl)cc1)c1cccc(NC(=O)c2ccccc2)c1	-4	-2.3	i	0.86	-1	38	94
CC(C)(C)c1ccc(S(=O)(=O)N2CCCCC2)cc1	-1	-0.1	i	1	-21	150	110
O=C(CSc1ncc(C(F)(F)F)cc1Cl)N1CCN(S(=O)(=O)c2ccc(Cl)cc2)CC1	-8	-0.8	.	.	-43	89	102
CCOc1cc(Br)c(C=O)cc1OCC	-5	.	i	0.66	9	39	106
N#C/C(=C\c1ccccc1)c1nc2ncccc2[nH]1	1	-2.3	i	0.83	.	.	105

Next section; it opens with the three that closed the last part.
SMILES	PKD1 inh	GALR2 agonist	HSV replic up	HSV replic up primary fold	INS promoter inh	INS promoter inh cell count	RGS16-Gao
O=C(CSc1ncc(C(F)(F)F)cc1Cl)N1CCN(S(=O)(=O)c2ccc(Cl)cc2)CC1	-8	-0.8	.	.	-43	89	102
CCOc1cc(Br)c(C=O)cc1OCC	-5	.	i	0.66	9	39	106
N#C/C(=C\c1ccccc1)c1nc2ncccc2[nH]1	1	-2.3	i	0.83	.	.	105
CC(=O)c1cc(-c2ccc(F)cc2)n(CCC(=O)Nc2cc(C)[nH]n2)c1C	-5	-1.6	i	0.78	16	88	98
S=c1[nH]nc(-c2cnccn2)n1-c1ccccc1	6	-1.1	i	0.9	-18	96	97
Cc1occc1C(=O)Nc1ccc(S(=O)(=O)N2CCCC2)cc1	5	-0.9	i	0.97	40	90	100
CC(CN1c2ccccc2Sc2ccccc21)N(C)C (stereo unspecified)	4	-1.2	i	0.88	27	75	162
CCOc1nc(Oc2cccc(C(=O)O)c2)nc(Oc2cccc(C(=O)O)c2)n1	-3	-1.8	i	0.85	15	108	91
COc1ccc(C(=O)N2CCC(C(=O)NCc3ccccn3)CC2)cc1	-15	-4.2	i	0.92	.	.	44
O=C1N/C(=C\c2ccccc2)c2ccccc21	4	-0.5	i	0.82	18	96	97
COCC(C)n1c(SCC(=O)NC(=O)Nc2ccc3c(c2)OCCO3)nc2ccccc2c1=O (stereo unspecified)	-12	-1.2	i	0.75	.	.	102
Cc1c(NC(=O)CSc2n[nH]c(-c3ccccc3)n2)c(=O)n(-c2ccccc2)n1C	0	-1.6	i	0.9	-40	148	108
N#CCCN(Cc1cccnc1)C(=S)NC(=O)c1ccco1	-1	.	i	0.99	33	150	104
CCOC(=O)c1c(NC(=O)CNCCOC)sc2c1CCCC2	-3	-1.9	i	0.96	44	141	102
Cc1cc(C)cc(NC(=O)c2cc(Cl)sc2Cl)c1	-8	-0.3	i	1.1	.	.	103

Among those listed so far, these contain a halogen:
SMILES	PKD1 inh	GALR2 agonist	HSV replic up	HSV replic up primary fold	INS promoter inh	INS promoter inh cell count	RGS16-Gao
Nc1ccc(N2CCOCC2)c(S(=O)(=O)Nc2cc(Cl)ccc2Cl)c1	-3	.	i	0.95	.	.	97
Cc1cc(C(=O)O)cc(Br)c1N	1	.	i	1	.	.	97
COc1ccc(/C=C(\NC(=O)c2ccccc2Cl)C(=O)NCCCC(=O)O)cc1	0	.	i	0.98	.	.	95
COc1cc(NC(=O)COc2ccc(F)cc2)nc(OC)n1	-5	-1.1	i	1	.	.	98
Nc1n[nH]c(-c2ccc(Br)cc2)c1Cl	-8	-1.9	i	0.96	-21	96	103
COc1ccc2cc(CN(CC3COCCO3)S(=O)(=O)c3ccc(Cl)cc3)c(=O)[nH]c2c1 (stereo unspecified)	6	-0.1	i	0.98	.	.	95
Cc1onc(-c2ccccc2Cl)c1C(=O)Nc1nnc(-c2ccc(Cl)cc2Cl)s1	-3	-1.3	i	0.87	.	.	61
Cc1ccc(NC(=O)CCl)c(C)c1	-4	.	i	0.85	.	.	100
O=C(Nc1ccccn1)c1ccc(S(=O)(=O)c2ccc(Cl)cc2)cc1	-3	.	i	0.97	3	194	101
COc1ccc(OC)c(C(=O)c2ccc(Cl)cc2)c1	.	.	i	0.89	.	.	104
O=C1c2cccc3c([N+](=O)[O-])ccc(c23)C(=O)N1c1ccc(Cl)cn1	-9	1.9	.	.	.	.	99
CCOc1cc(CNCCO)cc(Br)c1OCc1ccccc1Cl	-6	-1.9	i	0.6	.	.	94
C/C(=N/NC(=O)CSCc1ccc(Cl)cc1)c1cccc(NC(=O)c2ccccc2)c1	-4	-2.3	i	0.86	-1	38	94
O=C(CSc1ncc(C(F)(F)F)cc1Cl)N1CCN(S(=O)(=O)c2ccc(Cl)cc2)CC1	-8	-0.8	.	.	-43	89	102
CCOc1cc(Br)c(C=O)cc1OCC	-5	.	i	0.66	9	39	106
CC(=O)c1cc(-c2ccc(F)cc2)n(CCC(=O)Nc2cc(C)[nH]n2)c1C	-5	-1.6	i	0.78	16	88	98
Cc1cc(C)cc(NC(=O)c2cc(Cl)sc2Cl)c1	-8	-0.3	i	1.1	.	.	103

Bioassay records from PubChem.
